YopH PTP inh: YopH (Yersinia) phosphatase inhibition. fluorescence Ex485/Em525. inhibition, %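 (about 10 µM by stock and volumes)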. 140,000 compounds, 0.16% hits;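 active = inhibition of 50% or more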;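 also: controls were vehicle for no effect and minimum signal wells for full effect; inactives centre near -20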
Mtb growth: M. tuberculosis H37Rv growth inhibitors, H37Rv strain (AID 1626). one-dose inhibition, % at 10 µM; IC50 in µM for titrated hits. 220,000 compounds, 0.95% hits. M. tuberculosis H37Rv growth inhibition; higher % means a stronger effect;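 active = confirmed in a dose series; inconclusive = inhibition above 80% but not taken into the dose series; inactive = below 80% or under 30% at every dose of the series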;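 also: bacteria incubated seven days before Alamar blue readout; 0% = bacteria only wells and 100% = bacteria with antibiotic wells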
Mtb bLac sens: beta-lactam sensitization of Mtb H37Rv; M. tuberculosis H37Rv growth with meropenem, percent inhibition; hits of this screen are not shown here; inhibition, % at 25 µM; 330,000 compounds, 0.27% hits; AID 434955;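 active = about 74% or more and at least 40 points above the plate without the antibiotic, then above 30% in a dose series; inconclusive = first-round hits that could not be retested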;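 also: growth measured after seven days incubation then overnight dye step; 0% = bacteria only wells and 100% = bacteria with antibiotic; twin plates without the antibiotic show which effects depend on it; some results filed as inactive read as strong as hits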
RecA intein inh: Mtb RecA intein splicing inhibition; cell-free RecA intein splicing, fluorescence; inhibition, %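 (about 9 µM by stock and volumes)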; 290,000 compounds, 0.75% hits; in the data active = inhibition above about 30%; inconclusive = no clear call, values can overlap the other calls;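 also: 0% = vehicle wells and 100% = reference inhibitor control wells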
Target sequence (P9WHJ3 whole entry, looked up): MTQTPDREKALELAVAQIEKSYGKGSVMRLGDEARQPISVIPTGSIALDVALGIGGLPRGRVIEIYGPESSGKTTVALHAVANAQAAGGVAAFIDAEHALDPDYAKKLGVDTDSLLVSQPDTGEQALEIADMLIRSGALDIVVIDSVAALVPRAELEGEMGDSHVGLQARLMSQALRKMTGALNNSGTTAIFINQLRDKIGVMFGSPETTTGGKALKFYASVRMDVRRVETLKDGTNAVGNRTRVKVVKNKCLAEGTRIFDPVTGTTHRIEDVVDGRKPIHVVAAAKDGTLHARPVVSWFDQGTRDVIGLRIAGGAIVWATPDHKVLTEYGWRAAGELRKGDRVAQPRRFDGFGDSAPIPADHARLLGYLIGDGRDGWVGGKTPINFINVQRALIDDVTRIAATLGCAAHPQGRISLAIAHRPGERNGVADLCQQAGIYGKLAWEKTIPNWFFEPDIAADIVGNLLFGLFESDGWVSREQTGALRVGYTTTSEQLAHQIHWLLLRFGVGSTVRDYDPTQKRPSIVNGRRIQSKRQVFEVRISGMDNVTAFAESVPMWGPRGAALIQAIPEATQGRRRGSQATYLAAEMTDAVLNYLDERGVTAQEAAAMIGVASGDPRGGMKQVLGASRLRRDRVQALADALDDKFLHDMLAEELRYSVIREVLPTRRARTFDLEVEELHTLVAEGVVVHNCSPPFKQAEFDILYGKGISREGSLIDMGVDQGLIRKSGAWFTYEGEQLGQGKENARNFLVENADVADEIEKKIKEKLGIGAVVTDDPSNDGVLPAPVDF
Arbovirus inh: blocks arbovirus infection | arbovirus infection cell-based antiviral screen | inhibition, % at 10 µM | 200,000 compounds, 0.37% hits;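 active = inhibition from about 30%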;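 also: bluetongue infection of BSR cells; cell survival read as ATP light after 72 h; 0% = infected wells without compound and 100% = uninfected wells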
Arbovirus inh repeat: second read-out of Arbovirus inh, no call of its own (marks repeat the call); inhibition, %; measured here: 10K subset replicate screen; many hits read low in the repeat;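 first of two repeat runs on a subset; 0% = infected and 100% = uninfected wells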
The depositor's hits bear a star; ? = inconclusive; . = no result given; & = joins results of further samples. The list is partial; rates above refer to the full screens.

SMILES	YopH PTP inh	Mtb growth	Mtb bLac sens	RecA intein inh	Arbovirus inh	others
C[C@]12CC[C@H](OS(=O)(=O)O)CC1=CC[C@@H]1[C@@H]2CC[C@]2(C)C(=O)CC[C@@H]12	.	.	-10.6&-2.8	0.0&3.2	.
CC(=O)Nc1cccc(-c2cnc3ccccc3n2)c1	6.5	-2.1%	-8.8	-1.0	1.9
COc1ccc2nc(N=Nc3c(O)ccc4ccccc34)sc2c1	-17.2	13.7%	.	-4.7	-33.3
COc1ccc(C(=O)Nc2ccccc2C(=O)N2CCOCC2)cc1Br	.	.	-0.3	0.8	.
CCOC(=O)Cn1c(=O)oc2cc(S(=O)(=O)NC3CCCc4ccccc43)ccc21 (centres undefined)	5.1	3.8%	-9.1	0.4	-1.8	Arbovirus inh repeat=-2.4
C=C(C)CN(CC)C(=O)Cn1cnc2c(oc3ccccc32)c1=O	.	.	-3.4	-1.5	.
Cc1cc(C(=O)N2CCN(c3ccccn3)CC2)c(C)o1	19.1	1.8%	-1.8	0.9	-0.9	Arbovirus inh repeat=1.7
CS(=O)(=O)N1CCN(c2nc3ccc(Cl)cc3s2)CC1	.	1.4%	-7.1	-6.5	.
CCOc1ccc(NC(=O)NCc2ccc3c(c2)OCO3)cc1	.	.	-7.6	-2.3	.
CC(=O)Nc1ccc(NC(=O)CSc2ccc3nnc(CCNS(=O)(=O)c4ccc(C)cc4)n3n2)cc1	.	.	-1.2	-2.8	.
COCC(=O)Nc1cc(OC)cc(OC)c1	-1.3	2.1%	44.4	1.8	3.8
O=Cc1ccc(-c2cccc(C(=O)O)c2)o1	.	3.3%	-1.3	-2.6	-1.3
O=C(CN(Cc1ccc(F)cc1)C(=O)CCC(=O)Nc1nccs1)NCc1ccc(F)cc1	.	.	4.3	-0.5	.
NC(=O)c1cnn(-c2cccc(Cl)c2)c1N	.	-6.7%	-1.4	0.0	.
Cc1ccc2nsnc2c1S(=O)(=O)N1CCN(C)CC1	.	.	0.2	0.4	.
Cc1cccc2nc(CSc3nc4ccc([N+](=O)[O-])cc4[nH]3)c(Br)n12	1.1	-10.0%	8.0	0.2	17.4
CCOC(=O)C1C2C=CC3(CN(c4ccccc4CC)C(=O)C13)O2 (centres undefined)	-20.1	-5.2%	-0.4	-2.5	.
CCOC(=O)CSC1=Nc2ccccc2C2=NC(CC(=O)NCc3ccc4c(c3)OCO4)C(=O)N12 (centres undefined)	-53.7	0.1%	-6.6	.	6.4
Fc1ccc(-n2nnc(-c3ncc[nH]3)n2)cc1	.	9.5%	-0.1	3.2	.
Nc1c(C(=O)c2cccs2)sc2nsc(SCCN3CCCCC3)c12	.	10.7%	.	-3.8	.
Cc1c(C(=O)NCc2c(F)cc(F)cc2F)oc2ccc(S(=O)(=O)N3CCOCC3)cc12	.	.	-8.1	-0.6	.
CC(Cc1ccccc1)NCC(=O)Nc1cc(N(C)C)nc2ccccc12 (centres undefined)	.	3.9%	2.5	0.0	.
Cc1c(NC(=O)C2(c3ccc(Cl)cc3)CCCC2)c(=O)n(-c2ccccc2)n1C	-5.7	3.2%	-16.5	3.5	-0.1
CN(Cc1ccccc1)c1nc2c(c(=O)[nH]c(=O)n2C)n1CCSc1nc2ccccc2[nH]1	-40.5	-4.8%	-7.9	0.6	14.9
CCc1ccc2nc(N(CCCN(C)C)C(=O)c3ccc(C(=O)c4ccccc4)cc3)sc2c1	.	.	98.2	10.2	.

Next part, overlapping the part above by two compounds.
SMILES	YopH PTP inh	Mtb growth	Mtb bLac sens	RecA intein inh	Arbovirus inh	others
CN(Cc1ccccc1)c1nc2c(c(=O)[nH]c(=O)n2C)n1CCSc1nc2ccccc2[nH]1	-40.5	-4.8%	-7.9	0.6	14.9
CCc1ccc2nc(N(CCCN(C)C)C(=O)c3ccc(C(=O)c4ccccc4)cc3)sc2c1	.	.	98.2	10.2	.
COc1cccc(CNC(=O)Cn2c(=O)oc3ccccc32)c1OC	-30.8	11.9%	3.4	-2.5	-0.6	Arbovirus inh repeat=6.6
CSc1nc2ccccc2cc1/C=C(\C#N)c1cccc(C)c1	-7.3	-0.3%	18.4	4.1	-15.2
O=C(CC(Cc1ccccc1)C(=O)O)Nc1ccc(F)cc1 (centres undefined)	.	.	-5.0	-0.7	.
O=C(N/N=C/c1ccc2c(c1)OCCO2)c1ccncc1	.	?	98.7	-1.6	.
N#Cc1nc(COc2cccc(Cl)c2)oc1N1CCCC1	-19.4	13.7%	-4.8	-2.9	3.4	Arbovirus inh repeat=0.5
Cc1ncc(CN2CCN(CCc3ccccc3)C(CCO)C2)s1 (centres undefined)	.	-7.0%	-1.8	1.9	-3.3
Cc1cccc(S(=O)(=O)c2c(N)n(/N=C/c3ccco3)c3nc4ccccc4nc23)c1	-29.1	-5.8%	-3.5	1.1	1.9
Cc1cc(NC(=O)c2ccccc2F)n(C(C)(C)C)n1	.	-11.3%	-2.1	-1.2	.
O=C1CCCN1CCC12CC3CC(CC(C3)C1)C2	.	-4.5%	0.9	1.1	3.8
Cc1ccc(S(=O)(=O)CCC(=O)NCCN2C(=O)S/C(=C/c3ccc(F)cc3)C2=O)cc1	-25.4	-8.0%	2.5	6.0	6.9
O=C(NNc1cccc(Cl)n1)C1CC1	.	5.7%	-2.0	-0.9	-1.1
CCOC(=O)C1=C(N)N2C(=O)CSC2=C(C(=O)OC)C1	-26.7	-1.5%	-1.0	-3.4	-2.5
CC(=O)N1CCc2cc(Br)cc(S(=O)(=O)NCCCN3CCC(C)CC3)c21	-41.7	.	-8.1	.	4.1
COc1cccc(C(=O)C2CCCN(Cc3cccc(OCCO)c3)C2)c1 (centres undefined)	.	.	3.2	0.1	.
CC(=O)c1ccc(NC(=O)CCNC(=O)c2ccc(Cl)cc2)cc1	.	.	1.7	-2.5	.
CCOC(=O)c1cc2sc(C)cc2n1CC(=O)NCc1ccc(F)cc1	6.1	11.9%	-5.6	-1.1	-9.7
CCCC(=O)Nc1c2c(nn1-c1ccc(OC)cc1)CS(=O)(=O)C2	-50.7	-9.6%	1.5	-0.7	1.8
O=C1C(Cl)=C(NCCN2CCOCC2)C(=O)c2ccccc21	.	.	4.8	16.4	.
CC(=O)Nc1ccc(Sc2ccccc2C(=O)O)cc1	.	2.0%	-2.5	-2.2	6.4
CCCCNC(=O)c1oc2ccc(S(=O)(=O)N3CCCC3)cc2c1C	.	.	-2.1	0.6	.
COc1ccc(-c2noc(CCc3ccccc3)n2)cc1	.	13.6%	-6.4	6.2	-5.7
CN(C)CCNc1ncnc2oc(-c3ccccc3)c(-c3ccccc3)c12	.	.	3.3	-1.2	.
Cn1cc(Br)c(-c2cccc(N3C(=O)CC(C)(C)CC3=O)c2)n1	.	7.3%	-6.0	-0.2	.
Cc1ccc(NC(=S)NC(=O)c2cncc(Br)c2)cc1Cl	.	.	90.7	-1.0	.
O=S1(=O)Nc2c(ccc3cccnc23)-c2ccccc21	-39.8	?	86.0	-12.3	-34.3

Brought forward from above: 7 compounds, then new ones.
SMILES	YopH PTP inh	Mtb growth	Mtb bLac sens	RecA intein inh	Arbovirus inh	others
CC(=O)Nc1ccc(Sc2ccccc2C(=O)O)cc1	.	2.0%	-2.5	-2.2	6.4
CCCCNC(=O)c1oc2ccc(S(=O)(=O)N3CCCC3)cc2c1C	.	.	-2.1	0.6	.
COc1ccc(-c2noc(CCc3ccccc3)n2)cc1	.	13.6%	-6.4	6.2	-5.7
CN(C)CCNc1ncnc2oc(-c3ccccc3)c(-c3ccccc3)c12	.	.	3.3	-1.2	.
Cn1cc(Br)c(-c2cccc(N3C(=O)CC(C)(C)CC3=O)c2)n1	.	7.3%	-6.0	-0.2	.
Cc1ccc(NC(=S)NC(=O)c2cncc(Br)c2)cc1Cl	.	.	90.7	-1.0	.
O=S1(=O)Nc2c(ccc3cccnc23)-c2ccccc21	-39.8	?	86.0	-12.3	-34.3
O=c1c2ccccc2nc(SCc2nc3ccccc3s2)n1CCCO	-25.5	10.6%	19.1	2.5	5.1
COCCN1CCn2c(nc3cc(Nc4nnc(C)c5ccccc45)ccc32)C1	.	-11.8%	-1.7	1.8	.
CS(=O)(=O)N1N=C(c2ccco2)CC1c1ccc(Br)cc1 (centres undefined)	-17.4	3.9%	1.6	2.3	1.1
CCOC(=O)C1CCCN(C/C=C/c2ccccc2[N+](=O)[O-])C1 (centres undefined)	-31.8	-2.9%	-10.1	2.8	4.6
S=C1NNC2(CC3CC2C2CCCC32)NN1 (centres undefined)	.	6.2%	7.5	10.2	-2.6
c1ccc(CSc2ccc3nnc(-c4cccnc4)n3n2)cc1	-33.7	-3.0%	4.1	-1.8	1.6
O=C(OCc1nc2ccsc2c(=O)[nH]1)c1ccccc1	.	.	-0.1	-0.3	.
C(=N\Nc1nc2ccccc2[nH]1)/c1cccs1	-43.7	11.5%	80.0	3.1	-4.2
O=C(O)c1ccc(NC(=S)N2CCCCC2)cc1	.	-0.1%	-1.6	-1.2	-1.4
Cc1cc(C)cc(NC(=O)CCC(=O)Nc2nnc(C(C)C)s2)c1	.	.	2.9	-1.5	.
N#CC(C#N)=C1C=C2C=C(N3CCOCC3)CCC2CC1 (centres undefined)	.	-3.0%	.	-16.2	-7.5
COC(=O)[C@@H](N)CCCN=C(N)N[N+](=O)[O-]	.	1.4%	0.8	-3.6	.
CN(C)CP(=O)(Nc1ccccc1)N(C)C (centres undefined)	-43.3	-1.1%	-8.2	-0.3	0.2
O=C(CCNS(=O)(=O)c1cccc2nsnc12)NCCc1ccccc1	-31.1	-9.6%	-0.4	-2.4	-1.0	Arbovirus inh repeat=4.3
O=C(Cc1nnc(NC(=O)c2ccccc2)s1)N/N=C\c1ccc(O)c(O)c1	.	.	-5.0	-7.3	.
COc1ccc(C=O)cc1OS(=O)(=O)c1ccc(NC(C)=O)cc1	9.4	7.1%	-2.9	-2.2	3.2
c1ccc(Nc2c3c(nc4ncnn24)CCC3)cc1	-39.7	-5.2%	-10.7	0.2	3.9
COc1ncccc1C(=O)N1CCCC(C(=O)c2cc(F)ccc2F)C1 (centres undefined)	.	13.2%	-9.1	-0.8	1.0
N#Cc1ccccc1Sc1ccccc1C(=O)OCC(=O)NC12CC3CC(CC(C3)C1)C2	-26.1	8.4%	-8.8	8.6	7.0
Cc1c(Cl)cccc1Nc1nc(N)nc(CN2CCCCCC2)n1	-15.9	-4.1%	49.6	3.4	-4.6
CC(SC1CCCC1)C(=O)NC(C)(C#N)C(C)C (centres undefined)	-37.5	-2.9%	-12.4	-0.5	4.2
CN(C)CCCN(C(=O)c1ccco1)c1nc2c(F)cc(F)cc2s1	.	0.1%	-2.0	0.0	0.5
O=C(CSC(=S)N1CCCC1)Nc1ccc(Br)cc1Cl	.	.	0.1	-2.0	.
Cn1c(SCC(=O)Nc2ncc(C(F)(F)F)cc2Cl)nnc1-c1ccc(Cl)cc1	-28.2	12.0%	3.4	-2.5	3.1
CCNC(=O)CSc1nnc(-c2ccccc2Br)n1-c1cccc(C(F)(F)F)c1	-32.1	-21.8%	6.0	6.2	-3.5
Cc1cc2c(cc1C)C(c1ccccc1Br)CC(=O)N2 (centres undefined)	-20.7	6.7%	3.4	0.2	-4.8
C=CCc1cccc(CNc2nc3ccccc3n2C(C)C)c1O	9.5	.	1.0	6.2	18.2
O=C1C(=O)N(c2ccccc2)C(c2ccccc2[N+](=O)[O-])/C1=C(\O)c1ccccc1 (centres undefined)	.	-1.0%	2.4	-4.3	-2.1

Screening data deposited in PubChem BioAssay by several laboratories.
